# From PubChem
# PrP 5UTR inh = inhibition of PrP 5' UTR reporter expression | inhibition, % (concentration not given with the values) | actives 0.35% (n = 340,000) | cell-based PrP 5' UTR mRNA reporter, plate reader;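 active = every replicate at 50% or more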;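 note: 0 = median of the neutral control wells; tested in H4 reporter cells; numbers are from one replicate; inactives centre near -14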
# Mtb hypoxia rep = inhibitors of hypoxia-regulated fluorescent reporter in Mycobacterium tuberculosis; M. tuberculosis hypoxia-regulated fluorescent reporter, fluorescence; fluorescence inhibition, % (test concentration not listed); actives 0.1% (n = 300,000); AID 1159583;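 active = 35 to 45% if threefold the growth effect, above 45% if 1.5-fold the growth effect; inactive = the rest, general growth blockers included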;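 note: wells of about 50 µL received 100 nL stock; 0% = vehicle wells and 100% = reference inhibitor wells; whole bacteria with a GFP reporter of the hypoxia response; strong numbers were not always called active; many hits fall short of the cut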
# Bead autofluor = compound fluorescence in toxin protease inhibitor counterscreen; actives 3.1% (n = 360,000); fluorescence intensity (concentration not given with the values); compound autofluorescence counterscreen, microsphere flow cytometry; stronger effect = higher value;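 active = at least 3 SD above the mean of all compounds, about 16000 in these data; inconclusive = too few beads counted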;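 note: 100 nL of 1 mM stock went into each well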
# Sa ugtP lethal = compounds lethal to S. aureus RN4220 ugtP deletion mutant; OD600 growth, 16 h; some inactives read as strong as hits; growth inhibition, % (concentration not given with the values); actives 0.54% (n = 330,000); AID 1259309;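 active = z-score under -3 and OD600 up to 0.15 on both plates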;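 note: plate controls were untreated wells for no effect and antibiotic for full effect; wells of about 80 µL received 100 nL stock; the first replicate is given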
# BJeLR viability = kills HRASV12-expressing BJeLR cells; BJeLR (HRASV12) viability, CellTiter-Glo ATP luminescence, 48 h; reference of the scale not given here; inhibition, % (no concentration beside the values); actives 0.17% (n = 300,000); AID 1554;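 active = replicate mean above 50%; inconclusive = above 50% but judged a plate artefact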;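 note: 50 nL library stock added to about 25 µL; numbers are from one replicate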
# Sa RN4220 lethal = S. aureus RN4220 growth inhibition | OD600, 16 h | inhibition, % (no concentration beside the values) | actives 0.33% (n = 330,000);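 active = z-score of -3 or lower and OD600 up to 0.18 on both plates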;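 note: plate controls were untreated cells for no effect and reference antibiotic for full effect; stock transfer was 100 nL into about 80 µL; one replicate is shown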
# Mtb hypoxia rep growth = also measured in Mtb hypoxia rep; calls as there; growth inhibition, %; measured here: M. tuberculosis growth (absorbance);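 0% = vehicle and 100% = reference antibiotic; read after six days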
# Active calls of the source: *; ? = inconclusive; . = not tested or not shown.
SMILES,PrP 5UTR inh,Mtb hypoxia rep,Mtb hypoxia rep growth,Bead autofluor,Sa ugtP lethal,BJeLR viability,Sa RN4220 lethal
COc1cc(OC)c(OC)cc1/C=N/N(C)c1ccccc1,-10,.,.,3137,.,14,.
S=C1N[C@H]2CCCC[C@@H]2N1,.,-11,-15,.,-3,7,-1.1
Cc1cc(C)n(-c2nnc(N3CCN(c4ccccc4)CC3)nn2)n1,-23,18,21,2166,-5,5,-0.9
COC(=O)N1C(=O)[C@](c2ccccc2)(C2CCCCC2)N1C(=O)OC,-3,8,14,3780,0,-4,3.2
Cc1nn(-c2ncc(C(F)(F)F)cc2Cl)c(=O)n1-c1cccc(F)c1,-14,13,7,3982,2,-17,1.8
Cc1ccc(NS(=O)(=O)c2ccccc2)c(NS(=O)(=O)c2ccccc2)c1,-13,8,4,2934,1,.,10.0
CC(=O)Nc1nc(C=C(Cl)Cl)cs1,-9,.,.,2820,9,0,-0.2
S=C(Nc1cccc(Cl)c1)Nc1ccccc1Oc1ccccc1,-10,4,5,3389,-4,-2,8.0
CCOc1ccccc1C(=O)NCC(=O)NNC(=O)c1cccs1,-17,9,5,3978,2,.,2.4
CCOC(=O)C1OC1C(=O)NC(CC(C)C)C(=O)NCCC(C)C (stereo unspecified),.,4,12,.,4,.,5.1
CCc1ccc(N(C(=O)c2csnn2)C(C(=O)NC(C)(C)CC)c2cccnc2)cc1 (stereo unspecified),-25,4,4,4953,-8,6,-0.3
Cc1cc2nc(-c3ccc(=O)[nH]c3)n(C)c2cc1C,-9,13,4,3822,2,0,1.8
COc1ccccc1NS(=O)(=O)c1cc(C(=O)NCC(C)(C)N2CCOCC2)ccc1C,3,1,4,?,2,-4,-0.2
O=c1[nH]c(=O)n(Cc2ccco2)c(O)c1C=NCc1cccs1,-31,7,8,7443,6,9,6.8
COc1ccc(OC)c(S(=O)(=O)N2CCC(C(=O)NC3CC3)CC2)c1,-31,11,0,3813,1,-1,0.4
Cc1cc(C)n(-c2ccc(C(=O)N3CCN(S(=O)(=O)c4ccc(C(C)C)cc4)CC3)cc2)n1,.,9,5,.,10,.,5.4
O=C(c1ccc(F)cc1)N1CCN(c2cc(N3CCCCC3)c(F)cc2[N+](=O)[O-])CC1,4,-4,-4,8336,-2,-3,0.9
CC(C)CNC(=O)CC(=O)NN=Cc1cccs1,.,0,-3,.,4,.,-0.9
CCCOc1cc(CN2CCCCC2)cc(C(C)=O)c1,-5,.,.,2503,1,6,1.9
Clc1ccc(-n2cccc2CN2CCc3c([nH]c4ccccc34)C2c2ccccn2)nc1 (stereo unspecified),-19,-8,12,4437,-14,2,-5.4
CC1(c2ccc(OC(F)F)cc2)NC(=O)N(CC(=O)Nc2ccc(N3CCCCC3)cc2)C1=O (stereo unspecified),-8,6,0,4939,4,-15,0.7
Cc1cccc(NC(=O)CCNC(=O)c2ccco2)c1,-11,4,4,1898,12,-1,-0.6
COc1cccc(NN=C(C#N)S(=O)(=O)C(C)(C)C)c1,.,6,5,.,2,.,4.7
O=C(NCCCc1ccccc1)c1ccccc1,-62,.,.,4047,5,0,2.4
Cc1ccc(OCCNC(=O)c2ccc(COc3ccccc3)o2)cc1,-16,-10,-1,4791,11,-4,-6.4
# The results go on:
SMILES,PrP 5UTR inh,Mtb hypoxia rep,Mtb hypoxia rep growth,Bead autofluor,Sa ugtP lethal,BJeLR viability,Sa RN4220 lethal
O=C(CN1CCCCC1)N1N=C(c2cccs2)CC1c1cccs1 (stereo unspecified),-10,0,9,2665,3,-3,0.7
CC1=C(/C=C/C(C)=N\NC(=O)c2ccncc2)C(C)(C)CCC1,-5,.,.,2135,.,9,.
COc1ccc(NC(=O)C2CCN(S(=O)(=O)c3cccc4cccnc34)CC2)cc1OC,-14,.,.,5089,3,1,4.3
CCOC(=O)C1=C(C)NC(C)=C(C(=O)OCC)C1c1sccc1C,-6,-6,4,3938,-4,-11,0.0
COC(=O)Nc1ccc(S(=O)(=O)N2CCCC(C(=O)NC3CCS(=O)(=O)C3)C2)cc1 (stereo unspecified),-39,-5,10,2570,-2,-9,3.1
Cc1nc2ccc(NS(=O)(=O)c3ccccc3F)cc2s1,-21,7,0,4120,3,.,4.0
O=C(NCCCN1CCCC1=O)Nc1ccccc1F,-11,9,-9,5411,2,3,0.6
Cc1ccc(CNC(=O)CSCc2ccccc2F)cc1,2,0,3,3918,1,-20,9.8
CC(C)CCOc1ccc(C(=O)NN2C(=O)NC3(CCCCC3)C2=O)cc1,-6,0,4,.,3,-3,-1.8
CC(NC(=O)c1ccc(Br)cc1)c1ccc2c(c1)CCCC2 (stereo unspecified),-27,20,32,10880,-12,-19,-6.5
Cc1ccc(S(=O)(=O)/N=C(/NNC(=O)c2cccc(Cl)c2)c2ccccc2)cc1,-75,8,-1,4029,-9,-19,1.6
COc1ccc(C(C)(C)C)cc1NC(=O)CCCN1C(=O)NC(C)(C)C1=O,-17,-9,3,3610,-3,.,0.1
CCc1ccc(NC(=S)NNC(=O)c2ccccc2OC(F)F)cc1,.,7,11,.,4,1,2.9
O=S(=O)(NCc1ccc(F)cc1)c1cccc(S(=O)(=O)N2CCOCC2)c1,-7,4,9,7551,-3,7,6.2
CN(Cc1c(C(=O)NN=Cc2c(F)cccc2Cl)nnn1-c1nonc1N)c1ccccc1,.,-3,-11,.,-10,.,8.4
O=C(COc1ccc2c3c(c(=O)oc2c1)CCC3)N1CCCCC1,-24,9,2,5582,4,-8,2.9
Cc1cccc2nc(CSCc3ccco3)cn12,-91,.,.,5749,6,-3,1.6
O=C(Cc1csc(Nc2nc(=S)[nH]c3ccccc23)n1)NCc1cccc(Cl)c1,.,5,9,9426,-13,.,6.7
O=C(NCCCNC(=O)c1ccccn1)c1ccc(Br)cc1,-16,5,3,5750,2,4,0.7
Cc1cc(Cl)ccc1NNC(=O)CCc1ccccc1,-23,15,10,3928,1,-8,1.0
CCOC(=O)C1=C(C)OC(N)=C(C(=O)OCC)C1c1cccnc1 (stereo unspecified),-11,6,3,11872,2,7,-0.9
COc1cc(C)c(C(=O)Oc2cc(C)c(C(=O)O)c(O)c2C)c(O)c1C,-3,.,.,5291,-8,-13,14
Cc1ccc(-c2c(NC(=O)c3ccco3)oc3ccccc3c2=O)cc1,8,-8,-9,4328,-13,0,-0.7
CC1CN(CC(=O)Nc2ccc(S(N)(=O)=O)cc2)CC(C)O1 (stereo unspecified),-23,14,4,3033,6,0,0.0
Cc1ccc(N(CC(=O)NC(C)c2ccccc2)S(=O)(=O)c2cccs2)cc1 (stereo unspecified),-8,11,7,13289,7,2,1.8
# Going on with the list:
SMILES,PrP 5UTR inh,Mtb hypoxia rep,Mtb hypoxia rep growth,Bead autofluor,Sa ugtP lethal,BJeLR viability,Sa RN4220 lethal
CCCCn1c(C)c(C(=O)OCC)c2c(CN3CCOCC3)c(O)ccc21,-18,0,7,10484,-8,-2,7.4
COc1ccc(Cn2cnc3c(N)c(C)c(C)cc32)cc1,-38,8,6,4602,-9,-1,5.9
COc1ccc(CCC(=O)Nc2cccc(S(=O)(=O)N3CCCCCC3)c2)cc1OC,-5,3,6,5860,3,.,2.9
O=C(COC(=O)c1cc(S(=O)(=O)N2CCOCC2)ccc1O)Nc1cc(S(=O)(=O)N2CCCC2)ccc1Cl,8,4,-1,4764,-2,-3,2.3
COc1ccc(C(=O)Nc2ccnn2C2CCN(C(=O)CCC(F)(F)F)CC2)cc1,27,5,0,5195,3,1,2.5
O=C(CSc1nnc(NC(=O)C2CC2)s1)NCc1ccccc1,-27,-3,-9,5724,13,-2,1.4
CCOC(=O)C1CCCN(C(=O)C2COc3ccccc3O2)C1 (stereo unspecified),6,6,6,5918,8,.,4.9
O=C(NCc1ccccc1)C1=C[C@H](c2csc3ccccc23)C[C@H](OCCCCO)O1,-20,.,.,4093,.,17,.
COCc1c(C(=O)N(C)Cc2ccccc2N2CCCC2)oc2ccccc12,-19,13,20,?,12,.,5.8
CCOC(=O)c1ccc(N=c2scc(C)n2CC)cc1,-69,17,11,2744,15,6,11
Cc1cccc(NC(=O)N2CCN(Cc3ccc4c(c3)OCO4)CC2)c1C,-19,-9,1,2558,1,-7,1.6
Cc1cc(NC(=O)C2C3C(=O)N(Cc4ccc(Cl)cc4)C(C(=O)NCc4ccccc4)C34C=CC2(C)O4)no1 (stereo unspecified),-20,6,15,2537,2,-7,-0.4
Cc1ccc(OCC(=O)NCc2ccccn2)c(Br)c1,-60,.,.,2552,7,10,6.5
CN(C)c1nc(NCc2ccccc2)nc(N/N=C/c2ccc3c(c2)OCO3)n1,-20,.,.,2019,.,0,.
O=C(Oc1c(-c2ccco2)oc2ccccc2c1=O)c1cccnc1,-22,-10,0,4419,-1,-2,6.1
CC(C)CC(NC(N)=O)C(=O)Nc1cccc([N+](=O)[O-])c1 (stereo unspecified),-16,6,9,4140,2,2,2.6
Cc1ccn2c(Nc3ccccc3C)c(-c3ccccn3)nc2c1,-11,-1,12,4423,-14,14,13
Fc1ccc(NC(=S)NN=C2CCCCCC2)cc1,-9,1,13,5974,10,-3,-6.4
Cc1ccn2cc(CNS(=O)(=O)c3ccc4c(c3)OCCO4)nc2c1,-11,-5,-1,6117,2,0,-0.4
Cc1cc(NC(=O)Cn2c(=O)c3c(ncn3CC(C)C)n(Cc3ccccc3)c2=O)no1,-3,-4,3,9802,3,3,0.3
Cc1cc(N2CCC(C(=O)N3CCN(c4cccc(C)c4C)CC3)CC2)n2ncnc2n1,1,1,0,17532*,8,3,5.0
COc1ccc(/C=N/Nc2nnc(C)n2N)cc1OC(C)=O,-17,.,.,4177,.,-2,.
O=C(NCc1ccccn1)c1ccc(Cl)c(NC2=NC3CS(=O)(=O)CC3S2)c1 (stereo unspecified),-16,-4,1,6469,0,-11,1.0
C/C(=N\Nc1nncc2ccccc12)c1cccc(OC(F)F)c1,-61,.,.,5537,.,12,.
O=C(C1CCC(CNS(=O)(=O)c2ccccc2)CC1)N1CCOCC1 (stereo unspecified),-13,-3,6,4077,4,0,4.4

# Another view of some results above:
# Under each structure: PrP 5UTR inh	Mtb hypoxia rep	Mtb hypoxia rep growth	Bead autofluor	Sa ugtP lethal	BJeLR viability	Sa RN4220 lethal
- Cc1ccn2c(Nc3ccccc3C)c(-c3ccccn3)nc2c1
→ -11	-1	12	4423	-14	14	13
- Fc1ccc(NC(=S)NN=C2CCCCCC2)cc1
→ -9	1	13	5974	10	-3	-6.4
- Cc1ccn2cc(CNS(=O)(=O)c3ccc4c(c3)OCCO4)nc2c1
→ -11	-5	-1	6117	2	0	-0.4

# The main list resumes, repeating the 2 entries before the break.
SMILES,PrP 5UTR inh,Mtb hypoxia rep,Mtb hypoxia rep growth,Bead autofluor,Sa ugtP lethal,BJeLR viability,Sa RN4220 lethal
C/C(=N\Nc1nncc2ccccc12)c1cccc(OC(F)F)c1,-61,.,.,5537,.,12,.
O=C(C1CCC(CNS(=O)(=O)c2ccccc2)CC1)N1CCOCC1 (stereo unspecified),-13,-3,6,4077,4,0,4.4
COc1ccccc1NC(=O)COC(=O)COc1ccccc1F,-28,4,4,5997,4,.,2.9
Cc1ccc(C)c(S(=O)(=O)N2CCN(CC(=O)Nc3ccc([N+](=O)[O-])cc3)CC2)c1,-7,6,4,2429,2,-7,1.8
CC(CC(=O)O)CC(=O)N1CCN(S(=O)(=O)c2cccs2)CC1 (stereo unspecified),7,-5,-5,5664,0,10,-2.5
COc1ccc(S(=O)(=O)NCCc2ccccn2)cc1,-23,2,5,3428,3,.,3.2
Cc1ccccc1NC(=O)NCCN1C(=O)C2C3C=CC(C3)C2C1=O (stereo unspecified),-23,.,.,4576,2,-3,3.0
Cc1ccc([N+](=O)[O-])cc1S(=O)(=O)N1CCC(C)CC1,-9,4,9,4716,-2,-5,-1.1
Cc1cc(C(=O)NCC(=O)OCC(=O)N(C2CCCCC2)C2CCCCC2)ccc1[N+](=O)[O-],-9,11,5,2339,-7,3,4.4
CCOC(=O)C1Nc2ccccc2C2c3ccccc3CC12 (stereo unspecified),12,19,5,2892,18,2,17
Cn1c(SCC(=O)NC2CC2)nnc1-c1ccccc1Cl,-8,.,.,4028,.,-2,.
CCn1c(CSc2nc(C)cc(C)n2)nnc1SCC(=O)Nc1cccc2ccccc12,-11,8,1,9206,11,-2,7.9
O=C(/C=C/c1ccccc1Cl)OCC(=O)N1CCCC1,-7,-6,-10,3417,-7,.,1.8
COc1cccc(NC(=O)COC(=O)c2nc3nccc(C)n3n2)c1,.,-2,-4,10111,0,-15,1.7
